hNpr1 antagonist = antagonists of human natriuretic peptide receptor Npr1 | Potency, µM (doses to about 46.3 µM), without a hit: at the highest dose activity change, negative = inhibition, actives largely listed as inhibitors | P16066 | AID 1347048 | HEK293 hNpr1 GloSensor cGMP, ANP-stimulated luminescence | hit rate 1.6% among 76,000; active = well fitted inhibition curve with a large enough effect; inconclusive = small, poorly fitted or top-dose-only effect; inactive = no such curve, though single readings can be large or run the other way;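 further: nearly all actives have a fitted effect of over 60% in size; nearly all hits also lower the signal before the agonist is added; a reference antagonist and vehicle were the controls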
Target sequence (P16066 whole entry, looked up): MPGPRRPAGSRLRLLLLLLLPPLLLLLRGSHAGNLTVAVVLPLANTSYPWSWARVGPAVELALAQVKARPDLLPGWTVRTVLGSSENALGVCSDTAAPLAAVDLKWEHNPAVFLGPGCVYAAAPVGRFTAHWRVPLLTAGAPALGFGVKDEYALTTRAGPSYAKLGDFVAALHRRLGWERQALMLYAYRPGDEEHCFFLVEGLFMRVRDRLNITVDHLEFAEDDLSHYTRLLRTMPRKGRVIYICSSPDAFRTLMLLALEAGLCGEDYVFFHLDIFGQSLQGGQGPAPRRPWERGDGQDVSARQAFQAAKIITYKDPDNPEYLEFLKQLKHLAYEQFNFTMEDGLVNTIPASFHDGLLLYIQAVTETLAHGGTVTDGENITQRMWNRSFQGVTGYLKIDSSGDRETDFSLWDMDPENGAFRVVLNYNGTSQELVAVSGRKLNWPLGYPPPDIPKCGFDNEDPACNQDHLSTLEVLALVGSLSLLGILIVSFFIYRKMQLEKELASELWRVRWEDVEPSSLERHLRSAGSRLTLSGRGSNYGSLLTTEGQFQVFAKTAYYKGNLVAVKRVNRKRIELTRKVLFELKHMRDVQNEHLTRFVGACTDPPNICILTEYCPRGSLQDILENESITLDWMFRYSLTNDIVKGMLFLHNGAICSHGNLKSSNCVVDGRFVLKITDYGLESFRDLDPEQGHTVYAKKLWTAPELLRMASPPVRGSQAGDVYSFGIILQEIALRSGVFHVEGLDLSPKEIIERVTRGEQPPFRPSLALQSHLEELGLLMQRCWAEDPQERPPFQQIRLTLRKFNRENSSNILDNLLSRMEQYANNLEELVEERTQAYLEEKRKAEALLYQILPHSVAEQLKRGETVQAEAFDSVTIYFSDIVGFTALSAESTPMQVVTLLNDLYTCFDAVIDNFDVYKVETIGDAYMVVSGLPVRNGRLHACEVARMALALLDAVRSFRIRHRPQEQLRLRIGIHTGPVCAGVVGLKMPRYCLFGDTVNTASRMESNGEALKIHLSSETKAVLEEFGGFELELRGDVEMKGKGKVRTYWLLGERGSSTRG
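Compound pre-incubated 30 min at room temperature on GloSensor-loaded HEK293 cells stably carrying hNpr1 and the pGS-40F cGMP biosensor. Stimulation uses hNppA at 0.1 nM final; luminescence is taken at baseline and 20 min post-agonist.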
Starred values were filed as active, the others as inactive; ? = inconclusive; [ ] = another dose, or the depositor's remark. On the % scale 0 is the no-effect control and ±100 the full control effect; potency means the concentration at half of the fitted maximal effect. Only part of the results is shown, so the mix of outcomes need not match the whole.

SMILES | hNpr1 antagonist
CC1(C(=O)NCCCn2ccnc2)CCc2cnc(NCc3ccccc3)nc21 (configuration not stated) | 4%[70.6 µM]
Nc1cc(N2CCN(C(=O)C3CCOCC3)CC(O)C2)ncn1 (configuration not stated) | 3%
COc1cc2c(cc1OC)C(CNC(=O)c1ccc(C)cc1)N(C(=O)Nc1ccccc1F)CC2 (configuration not stated) | -1%
O=C(Nc1ccc2c(c1)C(=O)N1CCC[C@H]1C(=O)N2)c1cc(-c2ccc3c(c2)CCO3)n[nH]1 | -2%
CCCc1noc(-c2ccn3c(CNC(=O)c4ccc(CC)cc4)nnc3c2)n1 | 0%
O=C(CN1C(=O)NC(c2ccccc2Cl)C2=C1COC2=O)Nc1ccc(F)c(F)c1 (configuration not stated) | -21%
Cc1ccccc1NC(=O)CN1C(=O)NC(c2ccccc2Cl)C2=C1COC2=O (configuration not stated) | -2%
CN(C)C(C(=O)N1CCSCC1)c1ccc(F)cc1 (configuration not stated) | -2%
Cc1noc(-c2cccc(OC3CN(C(=O)NCC(C)C)C3)c2)n1 | -7%
COc1ccc(N2CCN(C3CCCN(CC(N)=O)C3)CC2)cc1 (configuration not stated) | 6%
CC(=O)N1CC2(CCN(Cc3cnc(N)nc3)CC2)CC1C(=O)O (configuration not stated) | -10%
Cc1ccc(N2CCC(NC(=O)c3ccccc3C)C2=O)cc1 (configuration not stated) | 2%
COc1ccc(CN2CCOC[C@H]2c2ncc(-c3ccc(OC)cc3)[nH]2)cc1 | -5%[70.6 µM]
CS(=O)(=O)c1cnc(NCCN2CCOCC2)nc1C1CCCNC1 (configuration not stated) | 2%
CN(C)Cc1nnc(C2CC(NC(=O)c3conc3-c3ccccc3)C2)n1C (configuration not stated) | 1%
Cc1ccccc1S(=O)(=O)NCC1Cn2cccc2C(=O)N1C (configuration not stated) | 5%
O=C(c1ccc(F)cc1)N1Cc2[nH]cnc2C[C@H]1c1nc(-c2ccc(Cl)cc2)no1 | -21%[70.6 µM]
Cc1cc(N2CCN(Cc3nc(-c4cccc(Cl)c4)no3)CC2)cc(C)n1 | -12%
COc1ccc(Cl)cc1C(=O)NC1CCN(c2cc(-c3cccs3)[nH]n2)C1 (configuration not stated) | -13%
Cc1nc(N2CCCCC2)n(CC(=O)Nc2cccc(F)c2)c(=O)c1C | 6%
O=C(CC1CCN(C(=O)c2cc(F)ccc2F)C1)NC1CC1 (configuration not stated) | 0%
O=C1CC2(CCN(Cc3ccc(C(F)(F)F)cc3)CC2)Oc2ccccc21 | ?
COCC1CN(C(C)=O)CC12CCN(Cc1c[nH]c3ccccc13)CC2 (configuration not stated) | -14%
CCC1c2nccn2CCCN1C(=O)c1cc(C)n(CCCOC)c1C (configuration not stated) | -5%
O=C(c1ccc(OC(F)(F)F)cc1)N1CCC(N2CC3CC(C2)[C@H]2CCCC(=O)N2C3)CC1 (some centres not stated) | 0%

Structures from the list above that have a CF3 group, in the order listed:
SMILES | hNpr1 antagonist
O=C1CC2(CCN(Cc3ccc(C(F)(F)F)cc3)CC2)Oc2ccccc21 | ?
O=C(c1ccc(OC(F)(F)F)cc1)N1CCC(N2CC3CC(C2)[C@H]2CCCC(=O)N2C3)CC1 (some centres not stated) | 0%

Three entries already listed, ordered by heavy-atom count, lowest first.
SMILES | hNpr1 antagonist
O=C(CC1CCN(C(=O)c2cc(F)ccc2F)C1)NC1CC1 (configuration not stated) | 0%
CS(=O)(=O)c1cnc(NCCN2CCOCC2)nc1C1CCCNC1 (configuration not stated) | 2%
O=C1CC2(CCN(Cc3ccc(C(F)(F)F)cc3)CC2)Oc2ccccc21 | ?

Back to the main list with the 5 entries that preceded the break.
SMILES | hNpr1 antagonist
O=C(CC1CCN(C(=O)c2cc(F)ccc2F)C1)NC1CC1 (configuration not stated) | 0%
O=C1CC2(CCN(Cc3ccc(C(F)(F)F)cc3)CC2)Oc2ccccc21 | ?
COCC1CN(C(C)=O)CC12CCN(Cc1c[nH]c3ccccc13)CC2 (configuration not stated) | -14%
CCC1c2nccn2CCCN1C(=O)c1cc(C)n(CCCOC)c1C (configuration not stated) | -5%
O=C(c1ccc(OC(F)(F)F)cc1)N1CCC(N2CC3CC(C2)[C@H]2CCCC(=O)N2C3)CC1 (some centres not stated) | 0%
CN1CCC(N[C@@H]2CCC[C@@H](C(=O)N(C)Cc3cccnc3)CC(=O)N(C)C2)CC1 | -1%[70.6 µM]
COCCCNC(=O)c1c[nH]c2ncccc12 | 5%[70.6 µM]
Cc1nn(-c2ccccc2)c(C)c1Cc1nc(C(C)C)no1 | 3%
N#Cc1ccc(CN2CCC[C@H]2C(=O)N2CCCCCCNC(=O)CC2)cc1 | -5%
CCn1nc(C)c(-c2cc(C(=O)N3CCCCCCNC(=O)[C@@H]4CCCC[C@@H]43)no2)c1C | -2%
CCN(CC)C(=O)C(NC(=O)c1ccc(OC)cc1)C1CCN(C(=O)c2ccc(F)cc2)CC1 (configuration not stated) | 3%
O=C(C1CC1)N1CCC(OCCOc2cccnc2)CC1 | 18%
Cc1ncc2c(c1CNC(=O)c1ccccc1F)CCN(C(=O)Cc1ccc3c(c1)OCO3)C2 | 2%
COc1ccc(CN2C(=O)O[C@@H]3CN(S(=O)(=O)N(C)C)C[C@@H]32)cc1OC | -13%
COCCC(=O)N1CCCCCNC(=O)[C@@H]2CCC[C@@H]21 | -1%
C#CCNC(=O)C1CCCN(c2nc3ncccc3o2)C1 (configuration not stated) | -7%[70.6 µM]
CCC(CC)CN1C[C@]23C=C[C@H](O2)C(C(=O)N(C)Cc2nccs2)C3C1=O (some centres not stated) | 3%
O=C(NC1CCCCC1)N1c2ccccc2CC1c1noc(C2CCOCC2)n1 (configuration not stated) | 2%
O=C(COc1ccccc1)N1CC[C@H](c2nnc(-c3ccccc3)o2)C1 | 6%[70.6 µM]
COCC1CN(Cc2ccc(C(F)(F)F)cc2)CC12CCNCC2 (configuration not stated) | 1%
O=C(N[C@@H]1CN(C(=O)c2cc(-c3ccc(F)cc3)n[nH]2)CC[C@@H]1CO)C1CC1 | -3%
CC(C)CCN1CCC(C2CCN(Cc3ccccn3)C2)CC1 (configuration not stated) | -4%
COc1ccc(C(=O)NC2CCN(c3nc4ncccc4o3)CC2)cc1 | -2%
CNC(=O)[C@H]1C[C@H](Oc2ccccc2)CN1C(=O)NCCc1ccccc1 | 0%
COc1cccc(CN2C[C@]34C=C[C@H](O3)C(C(=O)N3CCCCC3)C4C2=O)c1 (some centres not stated) | 6%
CNC(=O)[C@@H]1CN(C(=O)c2cc(OC)cc(OC)c2)C[C@H]1COC | 2%
COc1ccc(-c2nc3cc(C)ccc3cc2CN2CCC[C@@H]2CO)cc1OC | -8%
COc1ccc(F)cc1S(=O)(=O)N1[C@@H]2CC[C@H]1CC(NC(=O)c1ccc(F)cc1)C2 (some centres not stated) | -1%
Cc1ccc(CNC(=O)N2CCN(C(=O)N3CC4CC(C3)[C@H]3CCCC(=O)N3C4)CC2)cc1 (some centres not stated) | 0%
O=C(NC1CCCCCCC1)C1CCN(C(=O)c2ncn3c2COC(c2ccc(F)cc2)C3)CC1 (configuration not stated) | -13%

(further entries)
SMILES | hNpr1 antagonist
COCCn1ncc(N2CCCC(CC(=O)NCCc3c[nH]c4ccccc34)C2)cc1=O (configuration not stated) | 1%
CNC(=O)N1CCc2nc(N3CCN(C)CC3)[nH]c(=O)c2CC1 | 4%
COC(=O)[C@@H]1Cc2ncn(Cc3ccccc3)c2CN1C(=O)CC(C)(C)C | -2%[70.6 µM]
COc1ccc(Cn2c(C3CCN(C(=O)C(C)c4ccccc4)CC3)n[nH]c2=O)cc1 (configuration not stated) | 7%
CCCC(C)C(=O)N1CCn2nc(C(=O)Nc3ccccc3)cc2C1 (configuration not stated) | -23%
Cc1ccc(-c2ccc3nnc(CNC(=O)Cc4cccs4)n3n2)cc1C | 2%
Cc1noc(C)c1S(=O)(=O)N1CCC(N(C(=O)C2CC2)C2CCOCC2)CC1 | 6%
COc1ccc(N2CC(C(=O)N3CCCOCC3)CC2=O)cc1Cl (configuration not stated) | 1%
O=C(NCc1ccco1)c1ccc(Cn2ccn3nc4c(c3c2=O)CCCC4)cc1 | -20%
CC(C)CNc1ccc2nnc(-c3ccccn3)n2n1 | 0%[70.6 µM]
COc1ccc(C(=O)N2CCCCC2c2n[nH]c(C)n2)cc1 (configuration not stated) | 1%
COCCCNC(=O)C(NC(=O)c1ccccc1C)C1CCN(C(=O)CCc2ccccc2)CC1 (configuration not stated) | -2%
Cc1cccnc1CN1C[C@@H](F)[C@@H](OCc2nc3ccc(F)cc3[nH]2)C1 | 0%[70.6 µM]
NC(=O)[C@H](CC1CCCCC1)NC(=O)[C@H]1CNCCN1C(=O)c1cccs1 | 2%[70.6 µM]
CCN(CC)Cc1cnc2c(C(=O)NCCc3ncc[nH]3)cnn2c1 | 7%
O=C(c1cccs1)N1CCC(n2cc(-c3nc(-c4ccccc4)no3)nn2)CC1 | ?
Cn1ccc(NC(=O)c2ccc(-c3ncc4cnc(-c5cccc(F)c5)cn34)cc2)n1 | -3%[70.6 µM]
CCCNC(=O)C1COC2(CCN(C(=O)CC)CC2)N1C(=O)c1cccc(OC)c1 (configuration not stated) | 2%
COc1ccccc1C(=O)N1CCc2nnc([C@@H]3C[C@@H](O)CN3C(C)C)n2CC1 | -8%
O=C(O)Cn1nc(C2CCOC2)nc1C1(c2ccccc2)CC1 (configuration not stated) | 4%
CSCc1noc(Cn2nc(C)c3ccccc3c2=O)n1 | 6%
O=S(=O)(c1ccc2c(c1)CCCC2)N1CCCC(Cn2cnc3cccnc32)C1 (configuration not stated) | ?
COc1ccc(CC(=O)N2CCC(N3CC4CC(C3)[C@H]3CCCC(=O)N3C4)CC2)cc1Cl (some centres not stated) | -9%
COc1ccc(-c2cc3nc4c(c(=O)n3[nH]2)CN(C(=O)CN(C)S(=O)(=O)c2cnc[nH]2)CC4)cc1 | -9%
O=C1CC2(CCN(S(=O)(=O)c3cccs3)CC2)Oc2ccccc21 | -2%

More results follow.
SMILES | hNpr1 antagonist
Cc1noc(-c2ccc(OC3CN(C(=O)Cc4cccs4)C3)cc2)n1 | -16%
CCN1CC2(CCN(C(=O)CC(Cc3ccccc3)c3ccco3)CC2)CC1=O (configuration not stated) | 1%
COC(=O)[C@@H]1Cc2ncn(C(C)C)c2CN1S(=O)(=O)c1cccs1 | 5%[70.6 µM]
Cc1nc(-c2c3n(c(=O)n(CC(=O)NCc4ccccc4Cl)c2=O)CCCCC3)no1 | -2%
O=C(Cc1ccc(F)cc1)N1CCCC(c2nn(-c3ccccc3)c(=O)[nH]2)C1 (configuration not stated) | 1%
O=C(NC1CC(c2nnc(CO)n2C2CC2)C1)C1(c2ccccc2)CCCC1 (configuration not stated) | 7%
COc1ccc(CNC(=O)[C@@H]2Cc3nc[nH]c3CN2Cc2ccc(C(=O)O)cc2)cc1 | 4%[70.6 µM]
CC(C)C(=O)N1CCC(CCOc2ccccc2)C1 (configuration not stated) | 2%
CN(C)c1nc(C2CC(N)C2)cc(N(C)Cc2cnn(C)c2)n1 (configuration not stated) | -1%
Cc1ccc(C(=O)N2CC(C)(C)[C@@](C)(O)C2)cc1N1CCNC1=O | 8%
COc1ccc(OC)c(NC(=O)c2ccc3c(c2)N(C)C2CCCCN2C3=O)c1 (configuration not stated) | 9%
CC(C)CN(C)C(=O)c1cc(-c2cnn(C(C)C)c2)nc2ccc(F)cc12 | 0%
CN(CC(=O)NCCc1noc(-c2cccnc2)n1)S(=O)(=O)c1cccs1 | 0%
O=C(Cc1ccccc1Cl)N1CCC2(CC1)NC(=O)N(c1ccc(F)cc1)N2 | -3%
O[C@@H]1C[C@@H](c2nc(-c3ccccc3)no2)N(Cc2ncc[nH]2)C1 | 3%[70.6 µM]
O=C(CN1C(=O)NC(c2ccccc2)C2=C1COC2=O)NC1CCCC1 (configuration not stated) | -1%
Cc1cc(C(=O)N2CC(F)(F)C[C@H]2c2nnc(C3CC3)o2)on1 | 0%
COc1ccc(C(=O)Nc2ccc3c(N4CCCCC4)ncnc3c2)cc1 | 1%
COC[C@H]1CCCN1C(=O)CC[C@H]1CNC(=O)[C@@H]2[C@@H](CCN2Cc2ccccc2)N1C | 2%[70.6 µM]
CN(C)c1cccc(C(=O)N2CCn3nc(Cc4ccccc4)cc3C2)c1 | -14%
CS(=O)(=O)c1ccc2c(c1)nc1n2[C@@H](CNC2CCCCC2)COC1 | 2%[70.6 µM]
CC(C)C[C@@H]1N[C@H](C(=O)NC2CCC2)Cc2cn(Cc3ccncc3)c3cccc1c23 | ?
COC(=O)CNC(=O)c1nc2sccn2c1Br | 6%[70.6 µM]
Cc1ccc(C(=O)NC2CCN(C(=O)N3CC4CC(C3)[C@H]3CCCC(=O)N3C4)CC2)s1 (some centres not stated) | 2%
CC(C)COc1cc(=O)n2c(c1C(=O)NCC1CCCCC1)CCCCC2 | -3%
c1cc2cc(Nc3cnc4ccc(N5CCOCC5)nn34)ccc2[nH]1 | 1%[70.6 µM]
O=C(c1ccc(Cl)cc1)N1C[C@@H](CO)[C@H](c2nc(C3CC3)no2)C1 | 2%
Cn1cc([C@@H](NC(=O)c2n[nH]c3c2CCC3)C2CC(O)C2)cn1 (some centres not stated) | 2%
Cc1nccn1CC(=O)N1CCC2(CC1)CNC(C(=O)O)C2 (configuration not stated) | 2%
COc1ccc(-c2noc([C@@H]3Cc4nc[nH]c4CN3C(=O)c3ccc(F)cc3)n2)cc1 | -10%[70.6 µM]

In a second layout: results already given.
SMILES	hNpr1 antagonist
CS(=O)(=O)c1ccc2c(c1)nc1n2[C@@H](CNC2CCCCC2)COC1	2%[70.6 µM]
Cc1cc(C(=O)N2CC(F)(F)C[C@H]2c2nnc(C3CC3)o2)on1	0%
